HPGD block = qHTS Assay for Inhibitors of HPGD (15-Hydroxyprostaglandin Dehydrogenase); 15-hydroxyprostaglandin dehydrogenase [NAD(+)] (Homo sapiens), P15428; purified HPGD, NADH fluorescence kinetic, PGE2 substrate; Potency, µM, without a hit: at the highest dose activity change, negative = inhibition, usual class: inhibitors; 4.3% of 150,000 active; active = well fitted inhibition curve with a large enough effect (not every such curve was filed as active); inconclusive = small, poorly fitted or top-dose-only effect, or another doubt; inactive = no such curve, though single readings can be large or run the other way;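 also: top concentration of the series not given in the record; plate controls included wells without enzyme; inactives centre near -10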
Target sequence (P15428 whole entry, looked up): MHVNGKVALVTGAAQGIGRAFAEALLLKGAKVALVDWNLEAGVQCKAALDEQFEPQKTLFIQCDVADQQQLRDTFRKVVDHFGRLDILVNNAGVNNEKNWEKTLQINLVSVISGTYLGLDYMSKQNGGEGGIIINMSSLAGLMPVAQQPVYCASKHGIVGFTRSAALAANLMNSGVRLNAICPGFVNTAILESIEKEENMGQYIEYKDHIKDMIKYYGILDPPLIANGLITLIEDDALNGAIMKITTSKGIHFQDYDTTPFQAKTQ
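NADH formation kinetics: reaction with 30 uM PGE2 and 1 mM NAD+ (final), 20 nM enzyme, Tris-HCl pH 8 with Tween 20, after 15 min compound preincubation at room temperature. Fluorescence change, last versus first of five reads.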
* marks the source's active call; other numbers are inactive results; u = inconclusive. % is scaled to controls: 0 for no effect and ±100 for the full control effect; potency is read from the fitted curve at half-maximal effect.

SMILES | HPGD block
O=C(Nc1ccc(Oc2ccccc2)cc1)C1CCCO1 (stereo not drawn) | 11.2µM*
CC(C)c1nnc(NC(=O)c2c(O)c3cccc4c3n(c2=O)CCC4)s1 | -15.4%
O=S(=O)(c1ccccc1)N1N=C(c2cccs2)CC1c1ccc(Br)cc1 (stereo not drawn) | 3.5%
CCCCN(CC)c1nc(-c2ccncc2)nc2ccccc12 | -7.2%
CC1(C)Cc2c(ccc3ccccc23)/C(=C/C(=O)N2CCCCC2)N1 | u
Cc1cc2nc(C3CCN(Cc4nnnn4Cc4ccccc4)CC3)[nH]c2cc1C | -2.6%
Cc1ccc(NC(=O)CO/N=C(\N)c2nonc2N)cc1C | -9.1%
c1coc(CNc2nc3ccccc3n2CCN2CCOCC2)c1 | 2.5%
CCSc1nnc2c(n1)OC(c1ccc(C(=O)O)cc1)N(C(C)=O)c1ccccc1-2 (stereo not drawn) | -12.4%
CCCCNC(=O)C1CC(c2cccc([N+](=O)[O-])c2)=NO1 (stereo not drawn) | -11.3%
COc1ccc(S(=O)(=O)Nc2cc([N+](=O)[O-])ccc2OC)cc1 | -21.6%
O=C(CCN1C(=O)/C(=C\c2ccccc2Cl)SC1=S)N1CCN(c2ccccc2)CC1 | -19.0%
Cc1ccc(S(=O)(=O)N2CCOCC2)cc1C(=O)NCc1ccc2c(c1)OCO2 | -2.1%
COc1ccccc1N(C)S(=O)(=O)c1ccc(C(=O)N(CC(N)=O)C(C)C)cc1 | -10.5%
CC(=O)c1c(C)n(CCO)c2ccc(O)cc12 | -9.6%
C/C(=N/NC(=O)CSc1ccccn1)c1ccc([N+](=O)[O-])cc1 | -12.7%
CCOc1cc(C(=O)NCCN2CCOCC2)cc(OCC)c1OCC | -7.8%
NNc1ncnc2c1cnn2-c1ccccc1 | -20.5%
COc1ccc(S(=O)(=O)N2CN(CCc3ccc(OC)c(OC)c3)c3nc4ccccc4nc32)cc1 | -11.9%
CN=Cc1nc(-c2ccccc2)oc1O | -7.4%
COc1cc(C(=O)NCC(c2cccnc2)N2CCN(C)CC2)cc(OC)c1OC (stereo not drawn) | -5.5%
O=[N+]([O-])c1ccc(Cl)c(C2Nc3cccc4cccc(c34)N2)c1 | -9.2%
CC(=O)NS(=O)(=O)c1ccc(N=c2ssc3c2-c2ccc(C)cc2NC3(C)C)cc1 | -7.8%
O=S1(=O)CC(N2CCOCC2)c2ccccc21 (stereo not drawn) | -5.7%
CCOC(=O)C1CCCN(CC(=O)Nc2c(C(=O)OC)[nH]c3ccccc23)C1 (stereo not drawn) | -9.5%

Entries above that have an aryl thioether with sulfur outside any ring (two):
SMILES | HPGD block
CCSc1nnc2c(n1)OC(c1ccc(C(=O)O)cc1)N(C(C)=O)c1ccccc1-2 (stereo not drawn) | -12.4%
C/C(=N/NC(=O)CSc1ccccn1)c1ccc([N+](=O)[O-])cc1 | -12.7%

Back to the main list; the four compounds before the break are reprinted first.
SMILES | HPGD block
O=[N+]([O-])c1ccc(Cl)c(C2Nc3cccc4cccc(c34)N2)c1 | -9.2%
CC(=O)NS(=O)(=O)c1ccc(N=c2ssc3c2-c2ccc(C)cc2NC3(C)C)cc1 | -7.8%
O=S1(=O)CC(N2CCOCC2)c2ccccc21 (stereo not drawn) | -5.7%
CCOC(=O)C1CCCN(CC(=O)Nc2c(C(=O)OC)[nH]c3ccccc23)C1 (stereo not drawn) | -9.5%
CCCCNC(=O)c1nnn(-c2ccccc2)c1N | -7.3%
C=CCn1c(SCC(O)Cn2c3ccccc3c3ccccc32)nnc1-c1ccco1 (stereo not drawn) | u
N#Cc1cc2ccccc2nc1SCC(=O)Nc1ccccc1N1CCOCC1 | -6.4%
CCCOc1ccc(/C(O)=C2/C(=O)C(=O)N(CCCn3ccnc3)C2c2ccco2)cc1 (stereo not drawn) | -10.8%
Cc1noc(NS(=O)(=O)c2ccc(NC(=O)C34CC5CC(C3)CC(n3cnc(Br)n3)(C5)C4)cc2)c1C | -4.5%
COc1cc(-c2noc(CCCC(=O)NC3CCCCC3)n2)cc(OC)c1OC | -7.6%
O=C(O)c1ccc([N+](=O)[O-])c(P(=O)(O)O)c1 | -4.6%
Cn1c(SCC(=O)N2CCN(Cc3ccccc3)CC2)nnc1-c1ccncc1 | 4.2%
Cc1nn(C)cc1/C=N/NC(=O)c1sc2ccccc2c1Cl | u
CC12CC(NC(=O)N1c1cccc(C(=O)NCc3ccc4c(c3)OCO4)c1)c1cc(Cl)ccc1O2 (stereo not drawn) | -5.0%
COc1ccc(S(=O)(=O)N2CCOCC2)cc1C(C)C | -10.6%
CC(=O)c1cccc(NS(=O)(=O)c2c(C)noc2C)c1 | -0.3%
Cc1cccc(-n2ncc3c(NCc4ccccc4)ncnc32)c1 | u
C=CCNC(=O)CN1C2CCCC1CC(NC(=O)c1ccccc1C)C2 (stereo not drawn) | -1.1%
CC(=O)c1ccc(NC(=O)c2cc(CC(C)C)on2)cc1 | -10.3%
CCn1cnc2sc(C(=O)Nc3ccc4c(c3)OCO4)c(C)c2c1=O | u
CCc1ccc2oc(=O)cc(CN3CCCCC3C)c2c1 (stereo not drawn) | u
N#CCSc1nnc(C2CCCCC2)n1Cc1ccccc1 | -1.3%
CCOC(=O)C1=C(C)N(C)C(C)=C(C(=O)OCC)C1c1ccncc1 | 2.4%
O=C(CCC(=O)CCN1CCCCC1)CCN1CCCCC1 | -4.0%
O=C(NCCN1CCOCC1)c1ccc(F)cc1 | -8.7%
CCCSc1nc(N)c(C#N)c(-c2ccc(C)cc2)c1C#N | -7.1%
CCCCn1c(SCC(=O)Nc2cc(C)on2)nc2ccsc2c1=O | -4.5%
COc1ccc(OC)c(C(=O)CSc2nnnn2C)c1 | -27.3%
CCS(=O)(=O)NCCc1cc2ccc(C)cc2[nH]c1=O | -18.2%
Additional entries:
SMILES | HPGD block
O=C(c1csnn1)N1CCC2(CCCN(c3cccc(-c4ccccc4)c3)C2)CC1 | -8.9%
CCc1cc(=O)oc2cc(OCC(=O)OC)c(Cl)cc12 | u
CC(=O)C1=C(C)Nc2ncnn2C1c1cccc(OCc2ccccc2)c1 (stereo not drawn) | -13.0%
Cn1c(COc2ccccc2)nnc1SCc1nc2ccccc2[nH]1 | 0.4%
O=C1S/C(=C/c2ccccc2F)C(=O)N1CCN=C1NS(=O)(=O)c2ccccc21 | -21.4%
O=C(c1ccc(-c2cccc(Cl)c2)o1)N1CCN(c2ccc([N+](=O)[O-])cc2)CC1 | -13.8%
COc1ccc(C2CC(C(F)(F)F)n3ncc(C(=O)NCc4cccnc4)c3N2)cc1OC (stereo not drawn) | 0.1%
Oc1c(C=Nc2cccc3cccnc23)sc2ccccc12 | -5.5%
COc1ccc(CCNC(=O)CC2Nc3cc(C)c(C)cc3NC2=O)cc1OC (stereo not drawn) | u
O=S(=O)(c1ccc(N2CCCC2)nc1)N1CCOCC1 | -2.8%
CS(=O)(=O)N1CCc2cc(-c3csc(NC(=O)Cc4cccs4)n3)ccc21 | -13.7%
COc1ccc(NC(=O)CS(=O)CC(=O)NC2CCCc3ccccc32)cc1 (stereo not drawn) | -1.0%
COc1ccc(NC(=O)NC23CC4(C)CC(C)(CC(C)(C4)C2)C3)cc1OC | -3.5%
CC(NC(=O)C1CCCC1)C1CC2CCC1C2 (stereo not drawn) | 28.2µM*
O=C(Nc1nccs1)Oc1ccccc1 | 2.1%
COc1cc(S(=O)(=O)N2CCN(c3ccc(F)cc3)CC2)ccc1Cl | -14.0%
CCOC(=O)CN1C(=O)C(O)=C(C(C)=O)C1c1ccccc1 (stereo not drawn) | -16.5%
CCN(C(=O)c1cc(Cl)ccc1OC)C1CCCCC1 | 3.4%
COCc1cc(C)nc(SCC(=O)Nc2cccc3cccnc23)c1C#N | -10.9%
COc1ccc(Cl)cc1NC(=S)NCCc1c[nH]c2ccccc12 | -11.5%
CC(C)(C)OCC(NC(=O)C(CC(N)=O)NC(=O)OC(C)(C)C)C(=O)OC(C)(C)C (stereo not drawn) | -10.0%
Cc1nn2c(N3CCN(C(=O)c4ccco4)CC3)cc(C(C)(C)C)nc2c1-c1ccc(Cl)cc1 | u
COc1cccc2cc(C(=O)N3CCN(c4ccccn4)CC3)c(=O)oc12 | -29.4%
Cc1ccc(C)c(S(=O)(=O)NCCOc2nc(NC(C)C)nc(NC(C)C)n2)c1 | -5.0%
COc1ccc2nc(NC(=O)/C=C/c3ccc4c(c3)OCO4)sc2c1 | -5.0%
More results follow:
SMILES | HPGD block
O=C(O)CCCCCNC(=O)c1ccc(Br)cc1 | -3.7%
Cc1cc2c(cc1C)C(c1cccc([N+](=O)[O-])c1)CC(=O)N2 (stereo not drawn) | -1.8%
O=C(O)c1ccc(CNCc2c(Cl)cccc2Cl)cc1 | -9.2%
Cc1ccc(S(=O)(=O)NCc2nc3ccccc3c(=O)n2N)cc1 | -16.0%
Cc1ccccc1OCC(=O)Nc1ccc(Cc2ccncc2)cc1 | 17.8µM*
Nc1ccc(C(=O)N/N=C/c2ccccc2)cc1 | -6.4%
CC1(C)Cc2c(sc3nc(SCC(=O)O)[nH]c(=O)c23)CO1 | -14.4%
Cn1c(=O)c2c(nc(NCCCO)n2Cc2cccc(Br)c2)n(C)c1=O | -1.7%
O=P(O)(O)OC1[C@H](O)[C@H](OP(=O)(O)O)C(OP(=O)(O)O)[C@H](OP(=O)(O)O)[C@H]1O (stereo partly drawn) | -7.0%
N#Cc1ccc(CSc2nnc(COc3ccccc3)n2-c2ccccc2)cc1 | 3.4%
COc1ccc(Nc2nc(Cl)nc(NCc3ccco3)n2)c(OC)c1 | -9.1%
Cc1cc2oc(C(=O)NCc3ccc4c(c3)OCO4)c(C)c2cc1C | -10.3%
CS(=O)(=O)N1CCN(C(=O)CCC2CCCC2)CC1 | -6.3%
COc1ccc(CCNC(=O)C(C)Sc2ccccc2)cc1OC (stereo not drawn) | -2.5%
CCOC(=O)c1cc(C)n(CCc2ccccc2)c1C | -10.6%
CC(=O)c1cnc(Nc2nc(C)c3cc(C)c(C)cc3n2)nc1C | -22.3%
O=C(NC1CCCCC1)N1CCN(C(c2ccccc2)c2ccccc2)CC1 | -20.2%
CCCCC/C=C\C[C@@H](O)/C=C/C=C\C/C=C\CCCC(=O)O | -3.7%
COc1cc(N)c(Cl)cc1C(=O)OCCN1CCCCC1 | -9.3%
O=c1[nH]c(NCCCO)nc2c1C1(CCCC1)Cc1ccccc1-2 | u
O=C(C1CCCCC1)N1CCN(S(=O)(=O)c2ccc(Cl)cc2)CC1 | 1.7%
COc1ccc(C(=O)Oc2cc3c4c(c2)C(C)=CC(C)(C)N4C(=O)C3=O)cc1OC | 31.6µM*
Cc1sc2ncnc(OCC(=O)NC(C)C)c2c1C | -5.8%
COc1ccc2cnn(-c3ccc(C)cc3)c(=O)c2c1OC | 25.1µM*
COc1ccc(-n2c(SC)nc(O)c(Cc3ccccc3)c2=O)cc1 | -14.8%

Compounds from the list above with fluorine:
SMILES | HPGD block
O=C(NCCN1CCOCC1)c1ccc(F)cc1 | -8.7%
O=C1S/C(=C/c2ccccc2F)C(=O)N1CCN=C1NS(=O)(=O)c2ccccc21 | -21.4%
COc1ccc(C2CC(C(F)(F)F)n3ncc(C(=O)NCc4cccnc4)c3N2)cc1OC (stereo not drawn) | 0.1%
COc1cc(S(=O)(=O)N2CCN(c3ccc(F)cc3)CC2)ccc1Cl | -14.0%

Next compounds follow.
SMILES | HPGD block
CCC(=O)/C=C1/Sc2ccccc2N1CC | 28.2µM*
CC(=O)c1c(COC(=O)c2ccncc2)nc2ccccc2[n+]1[O-] | -27.7%
CC(CCc1ccccc1)NC(=O)c1ccccc1 (stereo not drawn) | u
CN(CC(=O)Nc1ccc(F)cc1)C(=O)COc1ccc(C(=O)c2ccccc2)cc1 | -4.5%
CCOc1cc(NC(=O)c2ccccc2[N+](=O)[O-])c(OCC)cc1NC(=O)CC(C)C | -2.6%
Cn1nc(-c2ccc(C(=O)O)cc2)c2ccccc2c1=O | 7.94µM*
Cc1cc(C)nc(SCCn2c(N(C)Cc3ccccc3)nc3c2c(=O)n(C)c(=O)n3C)n1 | -5.2%
CC1(C)Cc2c(c(N3CCOCC3)nc3snc(N)c23)CO1 | -13.4%
Cc1cc(=O)[nH]c(N/N=C/c2ccco2)n1 | -24.2%
O=C(Nc1cccnc1)c1ccc(Cl)c(S(=O)(=O)N2CCCCCC2)c1 | -14.5%
CC(C)=C(NC(=O)c1ccccc1)C(=O)N/N=C(\C)c1ccccc1O | -7.7%
Cc1ccc(C(=O)c2ccccc2C(=O)O)s1 | -10.1%
CC(C)CCC[C@@H](C)[C@H]1CC[C@H]2[C@@H]3CC=C4C[C@@H](O)CC[C@]4(C)[C@H]3CC[C@]12C | -3.3%
O=C(NCC1CCCO1)c1ccccc1NC(=O)c1cccc2ccccc12 (stereo not drawn) | -1.0%
COc1cccc(-c2ncc3ccccn23)c1 | u
NC(=O)C1CCN(C(=O)CSc2nc3ccccc3[nH]2)CC1 | -2.0%
COc1ccc(S(=O)(=O)N2CCCN(S(=O)(=O)c3ccc(OC)cc3C)CC2)c(C)c1 | -8.8%
O=C(CN1C(=O)/C(=C/c2cccc(Br)c2)SC1=S)N1CCCC1 | -4.4%
O=C(Nc1ccccc1)c1ccc[n+](Cc2ccc([N+](=O)[O-])cc2)c1 | -14.0%
CC(C)CCOP(=O)(c1ccc(N(C)C)cc1)C(O)c1ccccn1 (stereo not drawn) | -7.4%
COCc1cc(=O)[nH]c2cc(NC(=O)C(F)(F)F)c(C)cc12 | -20.1%
O=C(COc1ccccc1)NCc1ccccc1 | 28.2µM*
O=C(CS(=O)(=O)Cc1ccccc1)Nc1nnc(C2CCCCC2)s1 | -19.0%
O=C(O)[C@@H](Br)[C@@H](Br)c1ccccc1[N+](=O)[O-] | -3.0%
Cc1cc(=O)[nH]c2c1c(C)nn2C1CCCC1 | -2.7%
COc1ccc(NC(=O)/C(=C\c2ccc(OS(=O)(=O)c3ccc(C)cc3)cc2)NC(=O)c2ccccc2)cc1 | -14.8%

Source: PubChem (National Center for Advancing Translational Sciences (NCATS))

These rows are one share of the data; rates above refer to the full screens.
